Screening results deposited in PubChem BioAssay by National Center for Advancing Translational Sciences (NCATS).
gsp agonist: activates gsp, the McCune-Albright syndrome mutation | gsp mutant cells, cAMP HTRF, 30 min; control for the full effect not named in the record | 340,000 tested, 0.13% active | Potency, µM (highest dose often 76.9 µM), for the others: at the top dose activation (cAMP increase), most hits filed as activators; active = well fitted activation curve with a large enough effect; inconclusive = small, poorly fitted or top-dose-only effect, or another doubt; inactive = no such curve, though single readings can be large or run the other way; cell line not stated here;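 also: phosphodiesterase inhibitor Ro 20-1724 added with compounds to block cAMP breakdown; potency is read from the fitted curve at half-maximal effect; nearly all actives have a fitted effect of over 60% in size; about a fifth of the inactives were tested at one dose only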
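Cells in DMEM/10% FBS with G418 were pretreated with compounds in DMSO plus […] (300 uM stock) for 30 min at 37C. cAMP was measured by HTRF (cAMP-d2 plus anti-cAMP antibody-K) after 30 min at room temperature.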
TRPML1 blocker: blocks the human TRPML1 channel. AID 624415. Q9GZU1. TRPML1-inducible cells, Ca2+ dye fluorescence, FDSS; active compounds read low; inhibition of EC80 agonist-evoked calcium signal. activity change, negative = inhibition, % (test concentration not listed). 390,000 tested, 0.02% active; in the data active means activity change below about -50%; inconclusive means about -30% to -50%; inactive means above about -30%;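 also: stimulus is agonist 54-4 at its EC80 concentration; % is scaled to controls: 0 for no effect and ±100 for the full control effect; compound concentration not given in the record; the text of the record puts the active cut at -80%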
Target sequence (Q9GZU1 whole entry, looked up): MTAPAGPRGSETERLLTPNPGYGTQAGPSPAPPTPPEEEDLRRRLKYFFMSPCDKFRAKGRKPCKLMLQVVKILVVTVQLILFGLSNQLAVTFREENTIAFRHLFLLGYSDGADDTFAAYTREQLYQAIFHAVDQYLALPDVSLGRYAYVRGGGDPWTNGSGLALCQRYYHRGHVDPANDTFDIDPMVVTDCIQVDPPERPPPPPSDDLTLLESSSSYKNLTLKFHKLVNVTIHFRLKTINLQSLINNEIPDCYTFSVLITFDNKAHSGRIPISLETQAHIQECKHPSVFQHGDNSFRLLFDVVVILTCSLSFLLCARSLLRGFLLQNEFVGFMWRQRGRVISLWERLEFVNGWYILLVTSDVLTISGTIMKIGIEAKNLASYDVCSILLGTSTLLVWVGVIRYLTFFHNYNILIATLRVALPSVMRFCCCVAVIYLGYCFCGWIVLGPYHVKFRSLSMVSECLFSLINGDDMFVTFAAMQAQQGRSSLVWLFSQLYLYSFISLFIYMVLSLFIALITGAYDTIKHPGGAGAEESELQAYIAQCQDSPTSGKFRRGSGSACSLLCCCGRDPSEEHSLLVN
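TRPML1-DL cells, Tet-induced overnight (~16 h, 37 °C) at 1,500 cells/well, were loaded with Ca8 no-wash dye plus quencher for 45-90 min at room temperature. Compounds were pinned during FDSS kinetic reading; agonist 54-4 at EC80 (4 uM final) then added.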
gsp antag: antagonists of gsp mutant (McCune-Albright syndrome) | Potency, µM (doses to about 76.9 µM), inactives show at the highest dose activity change, negative = inhibition, usual class: inhibitors | AID 624288 | gsp-mutant cells, cAMP HTRF, 30 min; control for the full effect not named in the record | 340,000 tested, 0.4% active; active = falling curve of any shape with a large fitted effect; inconclusive = falling curve, mostly with a smaller effect; inactive = flat or rising curve; cell line not stated here;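 also: intracellular cAMP measured with PDE inhibitor Ro 20-1724 present during compound exposure; potency is read from the fitted curve at half-maximal effect; % is scaled to controls: 0 for no effect and ±100 for the full control effect; nearly all actives have a fitted effect of over 65% in size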
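G418-selected cells were plated in DMEM/10% FBS for 16-24 h at 37C, then treated with compounds plus the PDE inhibitor […] (300 uM solution added) for 30 min at 37C. Intracellular cAMP was measured by HTRF after 30 min lysis at room temperature.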
TRPML1 agonist: agonists of human TRPML1 channel; Q9GZU1; TRPML1-expressing cells, Ca2+ dye fluorescence, FDSS; host cell line not named in the record; reference of the full effect not given here; activation, % (no concentration beside the values); 410,000 tested, 0.12% active; AID 624414; in the data active = activation above about 50%; inconclusive = about 30% to 50%; inactive = below about 30%; also: 0% is about no effect; the text of the record puts the active cut at 80%
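TRPML1-DL cells, Tet-induced overnight (~16 h, 37 degrees C), loaded 45-90 min at room temperature with Ca8 no-wash calcium dye plus quencher. FDSS fluorescence: 10 s baseline, compound pin-transfer, 110 s agonist read, then EC80 54-4 (4uM final) and 110 s antagonist read.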
ClpP mod: qHTS Assay for Activators of ClpP; ATP-dependent Clp protease proteolytic subunit (Bacillus subtilis (strain 168)), P80244; purified B. subtilis ClpP, FRET peptide cleavage, 20 min; Potency, µM (doses to about 57.5 µM), without a hit: top-dose activity change, negative = active; 340,000 tested, 1.9% active; AID 651965, 2013; active = well fitted falling curve with a large enough effect; inconclusive = small, poorly fitted or top-dose-only effect; inactive = no such curve, though single readings can be large or run the other way; also: potency is read from the fitted curve at half-maximal effect; the source files actives as falling curves though it sought activators and does not explain the sign; nearly all actives have a fitted effect of over 65% in size; many hits overshoot -100%
Target sequence (P80244 whole entry, looked up): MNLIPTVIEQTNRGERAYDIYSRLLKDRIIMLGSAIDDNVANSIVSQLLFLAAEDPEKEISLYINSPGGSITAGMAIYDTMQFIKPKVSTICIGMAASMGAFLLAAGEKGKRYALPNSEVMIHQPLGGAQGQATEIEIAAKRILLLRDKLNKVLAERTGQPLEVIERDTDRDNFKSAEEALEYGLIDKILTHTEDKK
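FRET quenching reversal measured ClpP activation: 10 microg/mL B. subtilis ClpP at pH 8 with the FRET-FV decapeptide, read at 430 nm after 320 nm excitation. The 20-min minus 0-min signal was scaled between DMSO/no-enzyme wells and ADEP (5.8 microM final).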
Menin-MLL FL inh: menin-MLL binding inhibition, fluorescein peptide. Fluorescence polarization, fluorescein-MLL peptide displacement from menin. FP activity change, % at 61.4 µM. 290,000 tested, under 10 active. AID 1766; inconclusive = falling polarisation curve, or a change in total fluorescence; inactive = total fluorescence flat and polarisation flat or rising; no compound was filed as active; the % refers to the polarisation; negative = inhibition;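 also: % of control where 0% means no effect; inhibitors lower the polarisation; unlabelled MLL peptide was the positive control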
The depositor's hits bear a star; u = inconclusive; x = no result given; [ ] = dose if it differs, or a comment. Random draw from the library (roughly 2.1% active in at least one column).

SMILES | gsp agonist | TRPML1 blocker | gsp antag | TRPML1 agonist | ClpP mod | Menin-MLL FL inh
O=C(CSc1nc2[nH]c(=O)cc(O)c2s1)Nc1cc(Cl)cc(Cl)c1 | -22% | 0 | 10% | 1.1 | x | 24
C/C(=C1\SC(N2CCOCC2)=NC1=O)c1ccc(C)cc1 | -10% | 58 | 3%[15.4 µM] | 1.2 | -0.5% | 4.9
OB(O)c1ccc(Cl)s1 | x | x | x | 0.1 | 0.4% | -5.1
N#CCc1nc2c3c4c(sc3ncn2n1)CCCC4 | -33%[inhibitor] | -4 | 5% | -0.1 | -2.9% | 20
O=C(Nc1ccc(Br)cc1)C1CCN(c2ncccn2)CC1 | x | 2 | x | -1.2 | -5.9% | x
COc1ccc(-c2cc3ccccc3oc2=O)cc1 | -9% | 29 | -11% | 0.9 | 4.1% | x
CCC(Sc1nc2ccsc2c(=O)n1Cc1ccc(C(=O)O)cc1)C(=O)Nc1cc(Cl)ccc1C (stereo unspecified) | 32% | -1 | x | -0.8 | 1.5% | x
O=C1c2ccccc2C(=O)N1CSc1nnc2c3ccccc3n(CCc3ccccc3)c2n1 | 16% | 26 | -8% | -0.4 | -6.8% | 1.2
O=C(CNC(=O)c1ccc(Br)o1)NNC(=O)c1cccc(Cl)c1 | -1%[15.4 µM] | -9 | 3% | -0.6 | x | x
CCn1c(=O)c2cc(C(=O)N(C)CC(OC)OC)sc2c2ccccc21 | u | 11 | -4% | -0.1 | 3.7% | 2.0
Nc1nc(SCc2ccc(Br)cc2)c2ncn(C3OC(CO)C(O)C3O)c2n1 (stereo unspecified) | -1% | -7 | 10% | -1.1 | x | x
S=C(NCCC1=CCCCC1)NCc1ccco1 | 22%[15.4 µM] | 27 | x | 0.9 | x | 0.1
COCCNC(=O)C(c1ccc(C)o1)N(C(=O)c1snc(C(N)=O)c1N)c1ccc(C)c(C)c1 (stereo unspecified) | -18% | 0 | -13% | 1.3 | -6.6% | 1.8
CC(C)(C)c1cc(OC(=O)c2ccncc2)ccc1O | -7% | 10 | 2% | -0.5 | -1.4% | 0.8
CC(=O)Nc1sc(N/N=C\c2ccccc2)nc1-c1cccs1 | 6%[15.4 µM] | 7 | -15% | 1.0 | x | 22
CCN1CCN(CCCNC(=O)c2cc3cc4ccc(OC)cc4nc3o2)CC1 | 16% | -5 | 9% | -0.4 | 48% | -0.3
Cc1nnc(NC(=O)C2CCCN(S(=O)(=O)Cc3ccccc3)C2)s1 (stereo unspecified) | -9% | -10 | 10% | -0.1 | -2.3% | 2.6
CN(NC(=O)c1ccc(Cl)cc1)c1nc(-c2ccccc2)nnc1C(F)(F)F | 2% | 42 | -15% | 0.2 | 0.3% | 0.3
COC(=O)CC(CP(=O)(O)CN(C)C=O)C(=O)OC (stereo unspecified) | -4% | -12 | 9% | 1.2 | 0.9% | -0.4
O=C1C=C(NCCNc2c(F)c(F)c(CO)c(F)c2F)CCC1 | 18% | -2 | 6% | -0.7 | 2.6% | 2.3
c1ccc(N2CCN(c3nc(NCc4ccco4)c4ccccc4n3)CC2)cc1 | u | -1 | 7%[15.4 µM] | 0.6 | u | 0.0
CC(C)(C)c1ccc(C(=O)NNc2ncnc3c2cnn3-c2ccc(Cl)cc2)cc1 | x | -12 | x | 0.3 | -0.2% | x
O=C(COC(=O)CNC(=O)c1ccc(Cl)cc1Cl)NCC1CCCO1 (stereo unspecified) | 7%[15.4 µM] | 15 | 8% | 2.5 | 1.3% | x
O=C(Nc1ccc(O)cc1)c1ccc(NC(=O)C2CCCO2)cc1 (stereo unspecified) | -7% | -20 | -5% | 0.6 | 0.6% | x
CCCCNC(=S)N/N=C/c1ccc(OCC(=O)Nc2c(C)cc(C)cc2C)c(OC)c1 | -3% | 1 | 2% | 1.5 | x | 5.3
Cc1ccnc(-n2c(CCN3C(=O)c4ccccc4C3=O)nc3ccccc3c2=O)c1 | 5% | -8 | 0% | 0.6 | -1.5% | 2.1
Cc1ncoc1C(=O)N1CCc2c([nH]c3ccccc23)C1C1CCCCC1 (stereo unspecified) | -28% | 9 | -10% | 0.7 | x | -4.2
Cc1cc(OCC(=O)Nn2cnnc2)ccc1Br | 0% | -6 | -3% | 1.8 | -2.2% | -8.0
c1ccc(-c2cnnc(N3CCOCC3)n2)cc1 | 19% | 10 | -11% | -0.8 | -11% | 4.6
CCOC(=O)C(/C=C(\C#N)C(=O)OCC)=C(/N)N1CCN(c2ccc(OC)cc2)CC1 | 4% | -4 | 2% | -0.1 | 0.7% | -0.9
Cc1ccc(NC(=O)COc2ccccc2)cc1S(=O)(=O)N1CCCCC1 | 8% | -9 | x | 0.3 | -0.8% | x
Cc1cc(C)cc(Oc2coc3cc(OC(=O)c4cccs4)ccc3c2=O)c1 | -37%[inhibitor] | 0 | -9% | 2.5 | 1.2% | 5.5
CC1CCCCC1NC(=O)NC(=O)COC(=O)c1nccnc1N (stereo unspecified) | -1%[15.4 µM] | 3 | 11% | 0.1 | 1.8% | x
CN(CC(=O)Nc1ccc(F)cc1)C(=O)c1ccc(OCc2cn3ccccc3n2)cc1 | 7% | 51 | -5% | 0.6 | x | x
OC(COc1ccc(F)cc1Cl)CN1CCc2ccccc2C1 (stereo unspecified) | 28% | -4 | 1% | -0.1 | x | 3.0
COc1ccc(C2NC(=O)C(=O)/C2=C(\O)c2ccc(Cl)cc2)cc1OC (stereo unspecified) | -61%[inhibitor] | 22 | 8% | 3.4 | 1.6% | 1.5
Cc1cc([N+](=O)[O-])ccc1NS(=O)(=O)c1ccccc1 | -9% | 6 | u | -0.8 | x | x
C/C(=N\NC(=O)C1CC1)c1ccc(C)c(C)c1 | -28% | 1 | 4% | 1.9 | -1.9% | x
CC(=O)c1cccc(NC(=O)/C=C/c2ccc([N+](=O)[O-])s2)c1 | 18%[15.4 µM] | -7 | x | 0.2 | x | u
O=[N+]([O-])c1ccc(CN2CCN(c3ccc(Cl)cc3)CC2)o1 | 9% | 1 | 4% | -0.1 | x | -4.0

Reprinted from the entries so far (two entries):
SMILES | gsp agonist | TRPML1 blocker | gsp antag | TRPML1 agonist | ClpP mod | Menin-MLL FL inh
O=C(CSc1nc2[nH]c(=O)cc(O)c2s1)Nc1cc(Cl)cc(Cl)c1 | -22% | 0 | 10% | 1.1 | x | 24
C/C(=C1\SC(N2CCOCC2)=NC1=O)c1ccc(C)cc1 | -10% | 58 | 3%[15.4 µM] | 1.2 | -0.5% | 4.9

Carrying on:
SMILES | gsp agonist | TRPML1 blocker | gsp antag | TRPML1 agonist | ClpP mod | Menin-MLL FL inh
CSc1ccc(Cl)c(C(=O)NC2CCCC2)c1 | -32% | -5 | 6% | -1.1 | -0.1% | 1.1
Cc1ccnc(NC(=O)CCc2c(C)nc3ncnn3c2C)c1 | 6% | 0 | 3% | 1.4 | -1.6% | 4.0
Cc1nnc(SCC(=O)NC2CCCCC2)s1 | -16%[15.4 µM] | -3 | 3% | -0.4 | x | -0.4
O=C(Nc1cc(C(F)(F)F)ccc1Cl)c1cc2nc3c(c(C(F)(F)F)n2n1)CCCC3 | -50%[inhibitor] | 4 | -6% | -0.7 | -1.1% | 3.1
O=[N+]([O-])c1ccc(N2CCN(CCO)CC2)cc1Sc1nc2ccccc2[nH]1 | -3% | -6 | 3% | 0.3 | 1.3% | -2.5
CCN(CC(=O)Nc1ccc(C#N)cc1)CC(=O)Nc1ccc2c(c1)OCCO2 | -7% | 18 | x | -0.6 | 2.1% | x
COc1ccc(-c2cc(C)no2)cc1S(=O)(=O)Nc1cccc(CN2CCCC2)c1 | 8% | 29 | 6% | 0.1 | -3.3% | x
CC#CCCCC(=O)Nc1ccc(C(=O)O)cc1 | 12% | -6 | -3% | 0.0 | -3.8% | 3.4
CSc1cccc(NC(=S)N(CCCN2CCCC(C)C2)Cc2cccs2)c1 (stereo unspecified) | -29% | 7 | 2% | -0.3 | 0.9% | -3.5
CCCCN(C)C(=O)Cn1nc(Cc2ccncc2)c2ccccc2c1=O | 5%[15.4 µM] | -4 | -19% | -1.4 | 1.7% | -2.2
Cc1cccc(NC(=O)C2CCN(C(=O)c3ccc(Cl)cc3)CC2)n1 | 0% | 13 | -3% | 1.4 | 0.7% | x
COc1cc(C(=O)NCCSc2ccc(Br)cc2)cc(OC)c1OC | -3%[15.4 µM] | -6 | -18% | -0.2 | x | -1.5
CCOC(=O)c1c(NC(=O)CSc2nnc(-c3c[nH]c4ccccc34)n2CC)sc2c1CCCC2 | 1% | -6 | u | -0.2 | -4.2% | 1.2
Cc1cc(Cl)ccc1C(=O)C1CCCN(C(=O)c2cccc(N3CCCC3=O)c2)C1 (stereo unspecified) | 18% | -11 | -13% | 0.6 | 1.5% | 5.2
CCOC(=O)c1c(-c2ccc(C)o2)csc1NC(=S)NC(=O)c1ccccc1Br | 0% | 14 | -2% | 0.4 | -2.7% | 2.2
Fc1ccc(NCc2cccn2-c2nnc(N3CCOCC3)s2)cc1 | x | 0 | x | 1.0 | 1.5% | x
COc1ccc(-c2c3c(=O)n(C)c(=O)n(C)c3c3c(C)nc4ccccc4n23)cc1 | x | 0 | x | -1.1 | -23% | x
CSc1ccc(C(=O)C2CCCN(C(=O)c3cc(C)n(C)n3)C2)cc1 (stereo unspecified) | u | 14 | -6% | -0.7 | -1.2% | -5.2
COc1ccc(SCCc2nnc(-c3ccccc3)o2)cc1 | 5% | -8 | 0% | 1.4 | 0.1% | -13
O=C(O)c1cccc(CSc2nnc(-c3ccc(Cl)cc3)o2)c1 | -5% | 0 | u | -1.0 | 0.5% | 2.0
Cc1ccc2nc(C3CCCN3Cc3nc(CCC(C)C)no3)[nH]c2c1 (stereo unspecified) | u | 5 | -1% | 0.5 | 0.2% | 5.7
CCOC(=O)c1ccc(NC(=O)COc2ccccc2CNCCc2ccccc2)cc1 | 26% | 2 | 16% | -0.1 | 2.4% | -4.8
COc1cc(NC(=O)CCc2nc3cccnc3n2Cc2cccs2)cc(OC)c1OC | x | 8 | x | 2.4 | -5.1% | x
Cc1nnc(Sc2cc(C(=O)NCc3ccco3)c3ccccc3n2)s1 | 5% | -4 | 3% | 5.7 | -5.4% | 7.1
Cc1cc(Cl)ccc1NC(=O)c1cc2ccccn2n1 | x | 14 | x | 0.5 | -2.4% | x
Cc1nn2c(C(F)(F)F)cc(-c3ccc(OC(C)C)cc3)nc2c1C#N | x | -2 | x | -0.8 | 5µM* | x
CC(=O)c1ccc(Sc2nnnn2-c2ccccc2)c([N+](=O)[O-])c1 | u | 4 | -3% | -0.9 | -1.1% | -0.8
COc1ccc(CCNC(=O)Cn2ccc3cc(S(=O)(=O)N4CCCCC4)ccc32)cc1OC | x | -4 | x | 1.1 | -5.5% | x
